Screening results as filed in PubChem BioAssay.
Calb FLC = C. albicans growth inhibition with fluconazole, primary screen, CaCi-2 strain, Alamar Blue fluorescence; C. albicans CaCi-2 (fluconazole-resistant clinical isolate) + fluconazole, 48 h; growth inhibition, % (test concentration not listed); hit rate 0.57% among 300,000; AID 1979, 2009;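 active means most replicates above 75%; inconclusive means exactly half above 75%; inactive means most below 75%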;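 further: all wells also contain fluconazole at 8 µg/ml as a sub-toxic cotreatment; 0% = median of DMSO wells and 100% = median of geldanamycin control wells; wells of about 8 µL received 7.5 nL stock; the first replicate is given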
Beta apoptosis = inhibitors of cytokine-induced beta cell apoptosis, primary screen, luminescence | protection from apoptosis, % (concentration not given with the values) | INS-1E cytokine-induced death, ATP luminescence, 48 h; percent of positive-control rescue, neutral wells zero | hit rate 0.8% among 300,000;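 active means all replicates at 75% or more, or half of them and the mean; inconclusive means half reach 75% but not the mean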;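 further: 0% = cytokine-treated negative control wells and 100% = positive control rescue; higher means more ATP so stronger rescue from cytokine killing; wells of about 40 µL received 100 nL stock; the first replicate is given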
Beta2AR agonist = beta2AR agonists driving receptor internalization, primary screen, cell-based, FAP fluorogen, flow cytometry. response, % (concentration not given with the values). Am2.2-beta2AR cells; reference of the scale not given here. AID 504454, 2011. hit rate 0.43% among 340,000. Beta-2 adrenergic receptor (Homo sapiens), P07550;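 active means response above a set limit, near 3 SD of response in nonfluorescent compounds, cut at about 42% in these data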;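 further: stock transfer was 100 nL into about 11 µL; a reference agonist was the positive control; negative values mostly stem from fluorescent compounds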
Target sequence (P07550 whole entry, looked up): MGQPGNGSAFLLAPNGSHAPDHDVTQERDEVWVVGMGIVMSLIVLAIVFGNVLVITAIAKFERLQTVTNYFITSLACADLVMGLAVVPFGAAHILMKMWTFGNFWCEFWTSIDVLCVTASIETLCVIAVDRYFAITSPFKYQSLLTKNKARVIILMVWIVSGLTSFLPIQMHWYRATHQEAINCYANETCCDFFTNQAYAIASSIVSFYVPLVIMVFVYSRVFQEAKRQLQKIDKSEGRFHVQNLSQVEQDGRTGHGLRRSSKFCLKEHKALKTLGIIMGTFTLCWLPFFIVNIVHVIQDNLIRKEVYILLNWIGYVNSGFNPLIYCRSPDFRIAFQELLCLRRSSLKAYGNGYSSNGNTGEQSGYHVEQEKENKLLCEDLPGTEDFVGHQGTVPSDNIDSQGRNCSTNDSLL
A1 inh = caspase 3/7 activation in MEF A1-2A-BIM cells, primary screen, A1 inhibitor project, cell-based, luminescence, HTS; Caspase-Glo 3/7 luminescence, 3 h; percent of clofoctol response, vehicle zero; caspase activation, % (test concentration not listed); hit rate 0.066% among 330,000; AID 2462, 2010;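 active means over half of replicate activation scores above 10%, or exactly half above 10 with the replicate mean above 10; inconclusive means replicate mean below 10 yet half the replicates above 10; inactive means over half of replicates below 10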;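 further: wells of about 30 µL received 50 nL stock; many hits fall short of the cut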
LANA-H2A inh = blockers of LANA interaction with H2A/H2B – biochemical, FP readout, HTS, primary screen; Protein LANA1 (Human herpesvirus 8 type P (isolate GK18)), Q9QR71; cell-free LANA-H2A/H2B peptide, fluorescence polarization; inhibition, % (concentration not given with the values); hit rate 0.6% among 320,000; in the data active means inhibition mostly above about 10%, no sharp cut-off; inactive means mostly below about 6.7%;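 further: stock transfer was 7.5 nL into about 10 µL; 0% = median of vehicle wells and 100% = median of positive control wells; one replicate is shown; the record names a cut of 25% in any replicate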
T cruzi repl = inhibitors of intracellular T. cruzi growth, primary screen, luminescence, NIH3T3 host cells; inhibition, % (no concentration beside the values); hit rate 1.4% among 300,000; T. cruzi beta-gal in NIH3T3, 90 h;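 active means mean inhibition across valid replicates above about 55%, limit read from the data; inconclusive means mean below that limit but half or more replicates reach it; inactive means mean below it, under half of replicates reach it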;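 further: signal also drops with host cell toxicity which is not excluded here; 0% = plate median of DMSO wells and 100% = zero luminescence signal; higher percent means less beta-gal luminescence so fewer parasites; stock transfer was 50 nL into about 50 µL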
ALR H2O2 inh = inhibitors of human ALR sulfhydryl oxidase, primary screen, biochemical, H2O2 detection, HRP-luminol luminescence, single point | inhibition, % (concentration not given with the values) | FAD-linked sulfhydryl oxidase ALR (Homo sapiens), P55789 | hit rate 3.8% among 290,000 | purified ALR, DTT oxidation | AID 485317, 2010;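 active means mean and each replicate at 75% or more; inconclusive means only one of the two met; inactive means neither met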;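 further: stock transfer was 7.5 nL into about 7.5 µL; 0% = neutral wells and 100% = wells with inactivated enzyme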
Target sequence (P55789 whole entry, looked up): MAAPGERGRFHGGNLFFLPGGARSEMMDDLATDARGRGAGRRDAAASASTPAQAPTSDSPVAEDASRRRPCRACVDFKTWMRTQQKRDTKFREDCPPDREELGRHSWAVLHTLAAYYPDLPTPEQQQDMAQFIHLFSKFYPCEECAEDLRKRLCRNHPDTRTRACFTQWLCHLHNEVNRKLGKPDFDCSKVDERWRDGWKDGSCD
Ecoli rRNA inh = reduced GFP signal of wild-type E. coli, primary screen, bacterial rRNA inhibitor project, GFP/RFP fluorescence, OD600, single point; AID 720706, 2013; GFP signal change (wild-type ribosome), % (test concentration not listed); E. coli WT GFP vs humanized-ribosome RFP mutants, 24 h; active compounds read low; DMSO median 0, no signal -100; hit rate 1.6% among 350,000;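 active means significant combined selectivity score with lowered wild-type GFP, culture density cut under 30%, mutant RFP and density less affected; inactive means any of these conditions unmet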; further: one replicate is shown; some compounds called inactive have numbers as strong as hits
Ecoli rRNA inh OD600 = further read-out of Ecoli rRNA inh, marked with its call; OD600 change, %; measured here: OD600 growth;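 optical density of the mix in the first replicate; 0 = DMSO median and -100 = no signal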
Ecoli rRNA inh RFP = also measured in Ecoli rRNA inh; calls as there; RFP signal change, %; measured here: RFP humanized mutant strains;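 first replicate; 0 = DMSO median and -100 = no signal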
An asterisk follows results filed as active; ? = inconclusive; · = not tested or not shown; & = joins results of further samples.

SMILES	Calb FLC	Beta apoptosis	Beta2AR agonist	A1 inh	LANA-H2A inh	T cruzi repl	ALR H2O2 inh	Ecoli rRNA inh	Ecoli rRNA inh OD600	Ecoli rRNA inh RFP
C/C(N)=C(/C#N)C(=O)COC(=O)CSc1ccc2ccccc2c1	0	·	7	1.1	-0.4	4	33	-7	-7	0.6
CCOc1ccc(C(=O)c2ccc([N+](=O)[O-])cc2Cl)cc1	36	-2	2	0.5	1.3	60*	-12	-9	-12	-1.1
Cn1cccc1C(=O)NNC(=O)COc1ccc(Br)cc1	·	-3	8	1.6	3.9	-6	-4	-2	4	0.9
CN(C)CCCOC(=O)c1ccc(Cl)cc1	-15	2	-4	1.8	-1.9	37	0	·	·	·
CC(OC(=O)C(NC(=O)c1ccco1)C(C)C)C(=O)Nc1ncc(Cl)cc1Cl (configuration not stated)	-1	-6	-9	1.5	-2.0	-14	-1	·	·	·
COC(=O)CC1=NN(c2nc(C)cc(C)n2)C(=O)C1	8	0	0	0.3	-1.9	-1	·	10	10	3.2
CC(C)c1ccc(NC(=S)NN(c2ccccc2)c2ccccc2)cc1	-1	3	0	0.5	3.5	21	9	·	·	·
CC1(C)CC(=O)C(C(N)=NC(=O)c2ccccc2)=C(O)C1	0	-2	-12	-0.5	5.5	29	2	-4	-8	0.5
COc1cccc(OC)c1C(=O)Nc1ccccc1C(=O)N1CCOCC1	-1	1	-5	0.5	-1.8	-4	-3	·	·	·
CCC(=O)c1ccc(OCc2ccc(C(=O)OC)cc2)c(OC)c1	-4	-5	·	0.1	-3.1	-8	-3	·	·	·
N#Cc1ccsc1NC(=O)CN1C(=O)NC2(CCCCC2)C1=O	20	-2	3	1.1	2.4	-23	·	4	6	2.2
CCOc1ccc(Br)cc1S(=O)(=O)NC(=O)c1ccccc1	17	-7	-2	?	-0.1	-9	-2	17	8	2.0
CN(Cc1c(C(=O)N/N=C/c2ccccc2)nnn1-c1nonc1N)C1CCCCC1	-9	2	-7	0.2	-1.5	-1	-1	6	13	-2.1
CC(=O)Nc1ccc(C(=O)CCl)cc1	·	-21	3	0.9	-1.2	·	62	7	3	2.5
Cc1cc(C)cc(N(CC(=O)NCC2CCCO2)C(=O)CCC(=O)Nc2nccs2)c1 (configuration not stated)	-6	1	-7	0.3	0.3	-2	·	9	10	5.8
CCC(C)[C@H]1CNCCN1CCc1cc(C(F)(F)F)cc(C(F)(F)F)c1 (some centres not stated)	5	1	31	-0.6	-0.5	17	-17	-58	-76	-37
CC1=NN(C(=O)Cc2ccc([N+](=O)[O-])cc2)C(O)(C(F)(F)C(F)(F)F)C1 (configuration not stated)	-17	1	6	0.7	0.7	-28	6	4	8	-1.7
CCN=C(NCC)SC1CC(=O)N(c2ccc(F)cc2)C1=O (configuration not stated)	-4	6	4	0.8	-1.4	-8	-6	13	13	0.5
CCCCn1nnnc1SCC(=O)Nc1ccc2c(c1)OCO2	·	3	1	0.5	-0.7	9	-4	·	·	·
CCCCn1c(SCC(=O)NCc2ccco2)nc2cc(S(N)(=O)=O)ccc21	-7	0	1	-0.3	4.1	8	-5	·	·	·
C[C@H](CO)N1C[C@H](C)[C@@H](CN(C)Cc2ccc(C(=O)O)cc2)Oc2ccc(NS(=O)(=O)c3cn(C)cn3)cc2C1=O	·	2	-9	1.3	3.9	·	-3	5&3	6&13	-1.5&1.2
O=C(CN1C(=O)NC2(CCCC2)C1=O)Nc1ccc(Cl)cc1C(F)(F)F	-2	-9	0	-0.1	6.3	-5	-4	3	2	-1.1
O=C(O)c1ccccc1CSc1nnnn1-c1ccccc1	-2	-10	-1	0.1	-3.4	0	-27	-11	-8	-14
Cc1cc(NC(=O)CSc2nccn2-c2ccc([N+](=O)[O-])cc2)no1	5	-4	-2	0.0	-6.1	11	-7	12	3	0.6
COc1ccc(NCc2nnc(SCC(=O)NCc3ccco3)n2-c2ccccc2OC)cc1	-8	4	0	0.1	-1.8	-8	-5	·	·	·
C/C(CC(=O)Nc1ccc(N(C)C)cc1)=N\NC(=O)c1cnccn1	12	0	7	0.0	1.1	-17	99*	·	·	·
COc1ccc(CCC(=O)Nc2nc(C)c(C(=O)N(C)C)s2)cc1	-12	-1	2	0.9	-5.4	-16	-5	4	7	1.1
NC(=O)Nc1ccc(C(=O)N2CCN(S(=O)(=O)Cc3ccccc3)CC2)cc1	·	-1	7	-1.0	1.2	·	-1	6	15	-2.6
CC(C)C(C)NC(=O)COc1ccc(S(=O)(=O)N2CCOCC2)cc1Cl (configuration not stated)	34	-9	8	0.5	1.0	6	0	4	-2	3.1
CCOc1ccc(C2=NNC(c3cccs3)=Nc3ccc(OCC)cc32)cc1	16	9	·	-0.2	0.0	29	-1	·	·	·
CC(C)CN(C(=O)CSc1nc(-c2ccccc2)cn1N)c1c(N)n(Cc2ccccc2)c(=O)[nH]c1=O	-2	·	9	-0.6	-2.3	-7	·	3	9	3.4
O=S(=O)(NCCc1csc(-c2cccnc2)n1)c1cccs1	-2	-2	-7	-0.1	-5.6	-3	-3	-11	0	-6.6
Cc1nnc(NC(=O)CSc2ncnc3scc(-c4ccccc4)c23)s1	9	-1	-3	1.2	1.4	-4	-4	·	·	·
COc1cccc(C(=O)NNC(=O)CCc2ccccc2)c1	0	0	6	0.1	-5.8	-1	-3	-21*	-7.8*	6.1*
Cc1ccc(CNC(C)c2ccccc2)cc1 (configuration not stated)	-11	-7	-2	0.1	0.2	-9	3	·	·	·
O=C(NNc1cccc(Cl)n1)Nc1ccccc1F	-5	5	-5	0.6	-0.8	-4	15	-2	3	0.9
COC(=O)c1cn(Cc2ccc(C(F)(F)F)cc2)cc(F)c1=O	-3	-4	-2	0.5	0.5	-17	-1	2	5	-1.9
C#CCCCCCCC#CCN(C)C	-21	-13	8	0.2	-2.4	0	7	3	-7	-3.8
CC1Cc2ccccc2N1C(=O)COC(=O)CNC(=O)c1ccc(Br)o1 (configuration not stated)	-9	-3	6	0.8	2.8	-12	-10	·	·	·
CC(=O)Nc1ccc2nsnc2c1	0	-13	-1	0.5	0.9	-19	-8	19	6	1.4
O=C(Nc1ccc(N2CCCCC2)cc1)C(Cl)c1ccccc1 (configuration not stated)	-19	-4	2	-5.9	5.4	5	66	3	-6	2.0
Cc1onc(-c2ccccc2)c1C(=O)N/N=C/c1cc2c(cc1Br)OCO2	26	-1	6	-0.7	-4.7	8	-1	·	·	·
Cc1cccc(N=C2NN=C(c3ccc4c(c3)OCCO4)CS2)c1	3	5	9	-2.3	3.0	-3	8	13	11	3.6
COc1ccccc1CNC(=O)CN1NS(=O)(=O)c2ccccc2C1=O	·	-3	-7	0.9	-0.2	·	2	4	-5	-0.5
CC(C(=O)O)c1ccc(-c2ccccc2)c(F)c1 (configuration not stated)	·	-5	5&0	-7.0	8.0&4.5	-1	1	·	·	·
Cc1cccc(Nc2nnc(SCC(=O)NCc3cccs3)s2)c1	-9	0	4	0.9	-0.1	1	-5	-13	-8	6.4
CCNc1nc(NCC)n2c(SCC(=O)N3CC4(C)CC3CC(C)(C)C4)nnc2n1 (configuration not stated)	?	-9	-5	0.0	-1.6	8	-3	·	·	·
CC(C)(C)c1ccc(OCCOCCn2cnc3ccccc3c2=O)cc1	-2	-8	-1	0.9	0.6	12	-5	-46	-60	-10
CC1(C)CC(=O)C=C(Nc2ccc3c(c2)OCCO3)C1	-7	-1	-1	0.8	-1.0	15	1	·	·	·
O=C(COc1ccccc1Br)Nc1ccc(S(=O)(=O)N2CCCC2)cc1	·	9	10	-0.1	-1.1	·	-6	-23*	-10*	-0.7*
COc1cccc(/C=C2\SC(=O)N(CCC(=O)N3CCCCC3CCO)C2=O)c1 (configuration not stated)	-1	-6	18	0.1	-4.2	4	-8	-5	-8	3.6
Cc1cc2nc3c(nc2cc1C)C1(C(=O)N(C)C)CCC3(C)C1(C)C (configuration not stated)	4	·	2	0.7	1.1	0	2	·	·	·
CC(NC(=O)COC(=O)CC(c1ccccc1)c1ccccc1)c1ccccc1 (configuration not stated)	16	-4	-3	0.3	1.0	-2	2	-32	-46	-9.6
Cc1ccc2c(-c3ccc([N+](=O)[O-])cc3)cc(=O)[nH]c2c1	-5	2	-9	-0.1	-3.9	-8	11	11	3	-1.3
CC(=O)c1ccc(NC(=O)NC2CCCc3ccccc32)cc1 (configuration not stated)	-6	6	-4	0.0	-0.8	0	9	-3	-18	0.3
Cc1ncc([N+](=O)[O-])n1CC(=O)Nc1ccc(Br)cc1	0	-17	-3	1.2	3.6	8	-1	-19	-30	21
Cc1cc(OCC(=O)Nc2ccc(N3CCCC3)cc2)cc(C)c1Cl	10	0	19	0.8	-1.8	2	1	·	·	·
Cc1nc(NC(=O)/C=C/c2ccccc2)sc1C(=O)Nc1cccc(Cl)c1	-7	7	3	-2.1	-5.0	8	·	3	2	-0.2
O=C(COc1ccc(Cl)cc1)NCCSCc1cccc(Cl)c1	4	-4	-7	0.3	0.9	0	-57	·	·	·
COc1ccc(CC(=O)NCC2(N3CCCCC3)CCCCC2)cc1	-14	2	2	1.0	-0.8	11	-3	8	6	1.5
Next part
SMILES	Calb FLC	Beta apoptosis	Beta2AR agonist	A1 inh	LANA-H2A inh	T cruzi repl	ALR H2O2 inh	Ecoli rRNA inh	Ecoli rRNA inh OD600	Ecoli rRNA inh RFP
O=C(NCC1CCCO1)C1CCN(C2CCN(CCCC3CCCC3)CC2)CC1 (configuration not stated)	-4	-2	4	-0.5	3.5	-19	-4	8	6	3.1
O=Cc1ccc(OCCN2CCCC2=O)cc1	21	-3	37	-2.6	-0.3	-9	-15	11	8	0.3
CCn1c(SC)nnc1-c1nnc(SC)n1CC	-6	-5	-18	-1.0	-4.8	-8	-3	·	·	·
CCCCn1c(SCC(=O)Nc2cccc(C)n2)nnc1-c1ccco1	7	-7	-8	-0.2	-5.3	2	0	·	·	·
Cc1sc2c(=O)n3c(nc2c1C(=O)NCCCN1CCOCC1)CCCCC3	2	2	-7	-0.3	-1.1	13	0	·	·	·
Cc1cccc2cc(C#N)c(N3CCCC3)nc12	?	-4	3	-0.2	-0.2	3	6	·	·	·

These rows are one share of the data; count on the stated rates, not on these rows.
